Screening results as filed in PubChem.
Vaccinia mCherry: vaccinia inhibition (mCherry reporter); Vaccinia virus mCherry reporter infection, fluorescence; about a quarter of the inactives have no number; Potency, µM (highest dose often 36.5 µM), without a hit: top-dose activity change, negative = inhibition, most hits filed as inhibitors; actives 0.63% (n = 310,000); AID 720579; active = well fitted inhibition curve with a large enough effect; inconclusive = small, poorly fitted or top-dose-only effect; inactive = no such curve, though single readings can be large or run the other way; tested in A549 cells; further: nearly all actives have a fitted effect of over 35% in size; inactives centre near -10
Vaccinia Venus: vaccinia inhibition (Venus reporter); Vaccinia virus Venus reporter expression, fluorescence; Potency, µM (titrated, usually from 36.5 µM), inactives show at the highest dose activity change, negative = inhibition, usual class: inhibitors; actives 0.46% (n = 330,000); active means well fitted inhibition curve with a large enough effect; inconclusive means small, poorly fitted or top-dose-only effect; inactive means no such curve, though single readings can be large or run the other way; tested in A549 cells; further: nearly all actives have a fitted effect of over 30% in size; inactives centre near -10
Numbers without * were called inactive; i = inactive; ? = inconclusive; / = not tested or not shown; [ ] = dose if it differs, or a comment. On the % scale 0 is the no-effect control and ±100 the full control effect; potency means the concentration at half of the fitted maximal effect.

canonical_smiles | Vaccinia mCherry | Vaccinia Venus
C=CCOc1ccc(/C=C(\C#N)C(=O)Nc2ccccn2)cc1OC | -1% | -5%
Cc1ccc2c(c1)NCC(C(=O)NC1CCC(C)CC1)O2 (centres undefined) | i | -5%
CCC(=NCCc1c[nH]c2ccccc12)c1c(O)n(-c2ccc(C)cc2)c(=O)[nH]c1=O | -26% | -20%
COc1ccc(/C=C/C(=O)Nn2cnnc2)cc1 | -10% | -6%
Cc1ccccc1NC(=O)CSc1nnc(C2CC2)n1CC1CCCO1 (centres undefined) | -6% | -3%
Cc1[nH]c2ccccc2c1-c1nc2ccccc2[nH]c1=O | -5% | -7%
O=C(Nc1ccc(N2CCOCC2)nc1)c1ccccc1Cl | -19% | -15%
CC(C)OCCCNc1ncnc2c1cnn2-c1ccccc1 | 16% | -22%
Cc1cccn2c(=O)c(/C=C(\C#N)S(=O)(=O)c3ccccc3)c(Oc3ccc(Cl)cc3)nc12 | -7% | 0%
C=Cc1ccc2c(c1)N(C)C(=C)S2 | i | -11%
CN(C1CCCCC1)S(=O)(=O)c1ccc2c(c1)c(=O)c(C(=O)NCc1ccccc1Cl)cn2C | -16% | 0%
CCC(C)(C)C1CCC2(CC1)NC(CO)(CO)CO2 (centres undefined) | / | -12%
O=C(NCCCc1nc2ccccc2n1Cc1ccccc1Cl)C1CCCCC1 | i | -13%
COCCSc1ccccc1C(=O)NCCCn1ccnc1 | -13% | 1%
Fc1ccccc1N1CCN(C2CCCN(Cc3cccc(C(F)(F)F)c3)C2)CC1 (centres undefined) | -9% | -18%
CC(=O)OCC(=O)[C@@]1(O)CC[C@H]2[C@@H]3CCC4=CC(=O)CC[C@]4(C)[C@H]3C(=O)C[C@@]21C | -1% | -12%

By substructure: the compounds so far containing an NH in an aromatic ring.
canonical_smiles | Vaccinia mCherry | Vaccinia Venus
CCC(=NCCc1c[nH]c2ccccc12)c1c(O)n(-c2ccc(C)cc2)c(=O)[nH]c1=O | -26% | -20%
Cc1[nH]c2ccccc2c1-c1nc2ccccc2[nH]c1=O | -5% | -7%

(list continues)
canonical_smiles | Vaccinia mCherry | Vaccinia Venus
O=C(CNS(=O)(=O)c1cccc(Cl)c1)OCc1csc(-c2ccccc2)n1 | -12% | 2%
O=C(NCc1cccnc1)NC1CCCN1S(=O)(=O)c1ccc(Cl)cc1 (centres undefined) | / | -4%
CCOC(=O)CN(C(=O)CSc1nnc(C)n1-c1ccccc1)c1cccc([N+](=O)[O-])c1 | i | -10%
COc1ccccc1/C=N/N1CCN(Cc2ccccc2Cl)CC1 | i | -10%
CN(C(=O)N1CCN(c2ccccn2)CC1)c1ccccc1 | -3% | -5%
CC(C)CCOc1cccc(OCC(=O)O)c1 | i | 1%
O=C(CN1C(=O)COc2ccc(S(=O)(=O)N3CCOCC3)cc21)N1CCN(c2ccc(F)cc2)CC1 | 2% | -2%
Cc1ccc2oc(C(=O)N(C)Cc3cnccn3)c(C)c2c1 | i | -9%
COc1ccc(S(=O)(=O)NCCCN2CCCC2=O)c(OC)c1 | i | -20%
Cc1ccc(C(=O)C2CCN(CC(=O)N3CCN(c4ccc(F)cc4)CC3)CC2)cc1 | -19% | -22%
Cc1cccc(N(C(=O)c2snc(C(N)=O)c2N)C(C(=O)NC2CCCC2)c2ccncc2)c1 (centres undefined) | 19% | 12%
CCc1noc(C)c1C(=O)Nc1cc(S(=O)(=O)N2CCOCC2)ccc1N1CCN(CC)CC1 | -12% | -12%
CCOc1ccccc1NC(=O)Nc1ccc2c(c1)OCO2 | ? | -5%
COc1ccccc1NC(=O)c1ccc(NS(=O)(=O)c2ccc(F)c(Cl)c2)cc1 | -1% | -14%
CN(C)Cc1ccccc1Sc1cccc2ccccc12 | ? | -26%
O=C1CCCc2oc3ccc(O)cc3c21 | / | -17%

A second format for some results above:
COc1ccccc1NC(=O)c1ccc(NS(=O)(=O)c2ccc(F)c(Cl)c2)cc1
- Vaccinia mCherry: -1%
- Vaccinia Venus: -14%
CN(C)Cc1ccccc1Sc1cccc2ccccc12
- Vaccinia mCherry: ?
- Vaccinia Venus: -26%

Next compounds:
canonical_smiles | Vaccinia mCherry | Vaccinia Venus
O=C(NN=C1CCCC1)C(=O)Nc1cccc(C(F)(F)F)c1 | / | -13%
Cc1ccc(C(=O)NC(=S)Nc2ccc3c(c2)OCCO3)c(C)c1 | / | -23%
COC(=O)c1ccc(Cn2nc(-c3ccc(C)cc3)ccc2=O)cc1 | -10% | -3%
Cc1ccccc1Oc1cc(NC(=O)CCCn2nc(C)c([N+](=O)[O-])c2C)cc([N+](=O)[O-])c1 | -13% | ?
CCOc1cc(/C=N/NC(N)=O)cc(Br)c1OCc1ccccc1 | ? | -10%
COc1ccc(NC(=O)CCN(c2ccc(OC)cc2)S(=O)(=O)c2ccc(C)c(C)c2)cc1 | -16% | -29%
CCc1c(C)sc2nc3c(C(=O)N4CCOCC4)cc(C(=O)c4cc(F)ccc4O)cn3c(=O)c12 | -7% | 31%[activator]
CCCOc1ccc(C(=O)Nc2ccc3oc(-c4ccc(N(C)C)cc4)nc3c2)cc1 | -9% | -8%
CCC(C)[C@H](NC(=O)Nc1ccc2c(c1)OCCO2)C(=O)OC (some centres undefined) | -13% | 1%
Cn1cc(CN(CCCN2CCOCC2)C(=S)Nc2cccc(Cl)c2)c2ccccc21 | ? | -25%
COc1ccc(-n2c(C)cc(C(=O)COC(=O)c3cc(OC)c(OC)cc3NC(=O)c3cccs3)c2C)cc1 | i | 6%
COCCNC(=O)C1(S(=O)(=O)c2ccccc2)CC=CC1 | i | 0%
CC(OC(=O)c1ccc(Cl)c(S(=O)(=O)N2CCOCC2)c1)C(=O)NC1CCCCC1C (centres undefined) | -1% | -23%
COc1ccc(CCC(=O)NC2CCCc3ccccc32)cc1OC (centres undefined) | ? | -1%
COC(=O)[C@]12CCCCC=C1N(Cc1ccco1)C(=O)[C@H](CC(=O)NCc1cccc(C(F)(F)F)c1)C2 | 25% | -1%
Cc1nn(CC(=O)Nc2ccc(C(C)C)cc2)c(=O)c2c(C)n(-c3ccc(Cl)cc3)nc12 | 0% | -16%
CCOc1ccc(C(=O)Nc2ccc(Cl)c(-c3nc4cc(C)cc(C)c4o3)c2)cc1 | -14% | -13%
CC[C@]12c3[nH]c4ccc(Cl)cc4c3CCN1C(=O)[C@@H](CC(=O)NCC13CC4CC(CC(C4)C1)C3)C[C@@H]2C(=O)N1CCN(C(=O)C2CC2)CC1 | -20% | 10µM*
CCc1cccc2c(=O)c(C(=O)N3CCCCCC3)c[nH]c12 | -8% | -1%
Nc1nc(Sc2c([N+](=O)[O-])cc(C(F)(F)F)cc2[N+](=O)[O-])n[nH]1 | -11% | -6%
COc1ccc(CNC(=O)C2CC(=O)N(C3CCCCC3)C2)cc1 (centres undefined) | -7% | -4%
COc1ccc(CN(Cc2ccco2)C(=O)COc2ccccc2OC)cc1 | 4% | -6%
Cc1cc(C)c(S(C)(=O)=O)c(Oc2ccc(C(C)(C)C)cc2)n1 | 6% | -10%
COc1ccc(C(CNC(=O)CNC(=O)c2cc(OC)c(OC)c(OC)c2)N2CCOCC2)cc1 (centres undefined) | -10% | -2%
Cc1c(C(=O)NCC2(N3CCOCC3)CCCCCC2)cnn1-c1nccc(-c2ccccc2F)n1 | -6% | -13%
NC(=O)NC(c1ccccc1)c1ccccc1F (centres undefined) | -18% | -9%
O=c1nc2ccccn2c2ccc(S(=O)(=O)N3CCCCC3)cc12 | -7% | 6%
Cc1ccccc1NS(=O)(=O)c1ccc(C(=O)NCC2CCCO2)cc1 (centres undefined) | -13% | -8%
C=CCOC(=O)CCCCCCCC | i | -4%
CCOc1ccccc1NC(=O)c1sc2nc(C)cc(C)c2c1N | ? | ?
Cc1nnc(N(Cc2ccco2)C(=O)c2cccc(C#N)c2)s1 | -9% | -4%
COc1ccc(/C=N/Nc2ncnc(Cl)c2N)cc1OC | i | -7%

Among those listed so far, five contain an aryl thioether with sulfur outside any ring.
canonical_smiles | Vaccinia mCherry | Vaccinia Venus
Cc1ccccc1NC(=O)CSc1nnc(C2CC2)n1CC1CCCO1 (centres undefined) | -6% | -3%
COCCSc1ccccc1C(=O)NCCCn1ccnc1 | -13% | 1%
CCOC(=O)CN(C(=O)CSc1nnc(C)n1-c1ccccc1)c1cccc([N+](=O)[O-])c1 | i | -10%
CN(C)Cc1ccccc1Sc1cccc2ccccc12 | ? | -26%
Nc1nc(Sc2c([N+](=O)[O-])cc(C(F)(F)F)cc2[N+](=O)[O-])n[nH]1 | -11% | -6%

(list continues)
canonical_smiles | Vaccinia mCherry | Vaccinia Venus
CCc1ccc(NC(=O)c2ccc(F)c(S(=O)(=O)N(C)C3CCCCC3)c2)cc1 | ? | ?
COc1ccc(-n2nc(C(=O)NCC(=O)N3CCCC(C)C3)c3ccccc3c2=O)cc1 (centres undefined) | -14% | -19%
Cc1cc2occ(CC(=O)N(C)CC(=O)Nc3ccc(F)cc3)c2cc1C | -24% | -17%
COc1ccc(Br)cc1C(=O)Nc1ccc(O)cc1 | -12% | -3%
CCOc1ccc(N(Cc2ccccc2F)C2=NC3CS(=O)(=O)CC3S2)cc1 (centres undefined) | i | -9%
Cc1cccc(CCN2C(Nc3ccccc3)=NC[C@@H]2C)c1 | -10% | -14%
CCc1ccccc1NC(=O)CC1CS(=O)(=O)CC1CC(=O)Nc1ccccc1CC (centres undefined) | i | -5%
CCCC12CN3CC(CCC)(CN(C1)C3c1ccccc1)C2=O (centres undefined) | -1% | 11%
COC(=O)c1ccc(OCc2nc(N)nc(N3CCOCC3)n2)cc1 | -9% | -8%
CC(C)Cn1c(N)c(C(=O)COC(=O)CCc2nc3ccccc3s2)c(=O)n(C)c1=O | -1% | -13%
Cc1c(N=Nc2ccc(O)cc2)c(=O)n(-c2ccccc2)n1C | 11% | 5%
O=C(COC(=O)/C=C/c1ccc(C(F)(F)F)cc1)NC1CC1 | -12% | -9%
COc1ccc(C(C)=O)cc1Cn1nc(C)c([N+](=O)[O-])c1C | i | -13%
CNc1nc(-c2ccc3c(c2)CCN3C(=O)c2ccccc2F)cs1 | -21% | -28%
CC(C)(C)OC(=O)N1CCC(c2c(C(=O)N3CCN(C(=O)c4ccco4)CC3)cnn2-c2ccccc2)CC1 | -17% | -13%
COc1ccccc1N(C)S(=O)(=O)c1ccc(C(=O)NC(C)(C)C)cc1 | -11% | -3%
COc1ccc(CCNc2ncnc3c2cnn3-c2cc(Cl)ccc2C)cc1 | -23% | -26%
CCOc1ccc(CNC(=O)c2ccc(NC(=O)C3=CSCCO3)cc2)cc1 | -11%[7.34 µM] | -1%[7.34 µM]
Cc1cc(C)c(C#N)c(Sc2nnnn2-c2ccccc2)n1 | i | -17%
CC(C)(C)NC(=O)c1oc2ccccc2c1COc1ccccc1 | i | -5%
COc1ccc(NCC(=O)N/N=C/C2CCCCC2)cc1 | -20% | -15%
CCN(CC)S(=O)(=O)c1cc(OC)c(C)cc1C | i | -3%
CCSc1ncc(Cl)c(C(=O)N(Cc2ccc(N(C)C)cc2)Cc2ccco2)n1 | -3% | -24%
Cc1cc(O)ccc1NC(=O)c1ccccc1 | i | -5%
CSc1nc(NCc2ccco2)c2ccccc2n1 | -28% | ?
N#Cc1c(N2C(=O)Nc3ccccc3N2O)sc2c1CCCC2 | -8% | 3%
CC(C)OCCCNC(=O)c1cn(C)c2ccc(S(=O)(=O)N3CCCC3)cc2c1=O | i | -9%
COc1ccccc1-c1cccc([C@@H]2C[C@H]3[C@H](CON3C)CN2C)c1 | i | -16%
CCC(Cc1ccccc1)NC(=O)CN1C(=O)CSc2ncccc21 (centres undefined) | i | -2%
CC(C)C(=O)Nc1cccc(NC(=S)NC(=O)c2cccs2)c1 | i | -16%
O=C(COc1ccc(Cl)cc1)Nc1ccc2oc(=O)ccc2c1 | i | 0%
Cc1n(CC(O)COC2CCCCC2)c2ccccc2[n+]1C (centres undefined) | i | -10%
O=C(COC(=O)CCCN=C1NS(=O)(=O)c2ccccc21)NNC(=O)c1ccccc1 | i | 1%
CCC(Sc1nc2ccncc2[nH]1)C(=O)Nc1ccc(C)c(Cl)c1 (centres undefined) | i | -24%
COc1ccc(-c2cc3nc(C)c(CCC(=O)N4CCN(c5ccccn5)CC4)c(C)n3n2)c(OC)c1 | i | -7%
COc1cccc(/C=C/C(=O)OCC(=O)Nc2ccc(Cl)c(S(=O)(=O)N(C)C)c2)c1OC | -12% | -7%
Cc1cccc(Nc2ncnc3c2cnn3C)c1 | -26% | -17%
COc1cccc(N(CC(=O)NC(C)(C)C)C(=O)C2CSC(=O)C2)c1 (centres undefined) | -11% | -5%
Cc1ccc(OCC(=O)NCCC2=CCCCC2)cc1 | -20% | -6%
CC1(C)CC(=O)/C(=C(/O)Cc2ccccc2)C(=NCCc2ccccc2)C1 | -20% | -15%
Cc1ccc(S(=O)(=O)c2c(C)cc(C)nc2N2CCCC2)cc1 | -5% | -3%
CC(C)N1CC2=C(C1=O)C(c1ccc(O)cc1)NC(=O)N2C (centres undefined) | i | -6%
